Bioassay records as filed in PubChem.
ugtP null kill – growth inhibition of S. aureus ugtP deletion strain; S. aureus RN4220 ugtP deletion, OD600 growth, 16 h; some inactives read as strong as hits; growth inhibition, % (concentration not given with the values); hit rate 0.54% among 330,000;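 active = z-score under -3 and OD600 up to 0.15 on both plates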;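 also: plate controls were untreated wells for no effect and antibiotic for full effect; wells of about 80 µL received 100 nL stock; the first replicate is given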
PrP 5UTR inh – inhibition of PrP 5' UTR reporter expression. hit rate 0.35% among 340,000. cell-based PrP 5' UTR mRNA reporter, plate reader. inhibition, % (no concentration beside the values);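 active = every replicate at 50% or more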;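 also: 0 = median of the neutral control wells; tested in H4 reporter cells; numbers are from one replicate; inactives centre near -14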
Autofluor counter – counter-screen for toxin protease inhibitors: compound fluorescence. compound autofluorescence counterscreen, microsphere flow cytometry; stronger effect = higher value. hit rate 3.1% among 360,000. fluorescence intensity (concentration not given with the values);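 active = at least 3 SD above the mean of all compounds, about 16000 in these data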;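 also: 100 nL of 1 mM stock went into each well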
BJeLR lethal – kills HRASV12-expressing BJeLR cells; BJeLR (HRASV12) viability, CellTiter-Glo ATP luminescence, 48 h; reference of the scale not given here; hit rate 0.17% among 300,000; inhibition, % (test concentration not listed);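 active = replicate mean above 50%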;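 also: 50 nL library stock added to about 25 µL; numbers are from one replicate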
RN4220 kill – kills Staphylococcus aureus RN4220; S. aureus RN4220 growth, OD600, 16 h; inhibition, % (no concentration beside the values); hit rate 0.33% among 330,000;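 active = z-score of -3 or lower and OD600 up to 0.18 on both plates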;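 also: plate controls were untreated cells for no effect and reference antibiotic for full effect; stock transfer was 100 nL into about 80 µL; one replicate is shown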
Mtb hypoxia rep – Mtb hypoxia fluorescent reporter inhibition. hit rate 0.1% among 300,000. fluorescence inhibition, % (no concentration beside the values). M. tuberculosis hypoxia-regulated fluorescent reporter, fluorescence. AID 1159583;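 active = 35 to 45% if threefold the growth effect, above 45% if 1.5-fold the growth effect; inactive = the rest, general growth blockers included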;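 also: wells of about 50 µL received 100 nL stock; 0% = vehicle wells and 100% = reference inhibitor wells; whole bacteria with a GFP reporter of the hypoxia response; strong numbers were not always called active; many hits fall short of the cut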
Mtb hypoxia rep growth – also measured in Mtb hypoxia rep; calls as there; growth inhibition, %; measured here: M. tuberculosis growth (absorbance);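 0% = vehicle and 100% = reference antibiotic; read after six days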
Active calls of the source: *; . = not tested or not shown; & = joins results of further samples.

| SMILES | ugtP null kill | PrP 5UTR inh | Autofluor counter | BJeLR lethal | RN4220 kill | Mtb hypoxia rep | Mtb hypoxia rep growth |
| --- | --- | --- | --- | --- | --- | --- | --- |
| COc1cccc(/C=C/C(=O)Nc2ccc(C(=O)Nc3cccc(S(N)(=O)=O)c3)cc2)c1OC | -4 | 3 | 3880 | 4 | 0.0 | -21 | -3 |
| O=C(CSc1nncs1)Nc1nnc(-c2ccccc2)o1 | 1 | -66 | 5213 | 5 | 0.4 | -1 | 8 |
| COc1ccc(C2C(C(=O)NCc3cccnc3)c3ccccc3C(=O)N2C)cc1OC (configuration not stated) | -8 | -22 | 8632 | . | 7.2 | 15 | 6 |
| CCOc1ccccc1NC(=O)N1CCCC1C(=O)NCc1ccco1 (configuration not stated) | 3 | 8 | 4098 | -11 | 6.6 | 2 | 3 |
| Cc1cc2cc(CNC(=S)NC3CCCCC3)ccc2n1C | -16 | -10 | 1666 | 2 | 0.7 | -11 | 17 |
| O=[N+]([O-])c1ccccc1/C=C/C=N/n1c(-c2cc(-c3ccccc3)n[nH]2)n[nH]c1=S | . | -22 | 3937 | 4 | . | . | . |
| CCOc1ccc(CN(C)c2ccc(S(=O)(=O)N3CCN(C)CC3)cc2[N+](=O)[O-])cc1OC | 4 | -16 | 3545 | . | 1.4 | 11 | 5 |
| CCCCNC(=O)c1cc(-c2ccc(OC)cc2)on1 | -1 | -74 | 10529 | 7 | 1.6 | 2 | 10 |
| O=C(c1ccco1)N1CCN(C(c2ccccc2)c2nnnn2Cc2cccs2)CC1 (configuration not stated) | 3 | -10 | 3706 | 8 | 1.5 | . | . |
| CCn1c(C(C)NC(=O)c2cccc(C)c2)n[nH]c1=S (configuration not stated) | 0 | -23 | 1993 | 8 | 2.5 | 0 | 7 |
| O=C(CCl)N(Cc1ccccc1)c1ccccc1 | 6 | -23 | 2778 | -1 | 6.0 | . | . |
| Cc1ccc(N=Nc2c(C)[nH]n(-c3ccccc3)c2=O)cc1Br | -6 | -18 | 3483 | 2 | 0.2 | 2 | -1 |
| Cc1cccc(N2CC(C(=O)O)CC2=O)c1C (configuration not stated) | 0 | -28 | 4791 | 5 | 4.4 | 13 | -4 |
| CCCN1C(=O)C2(/C(=C(\O)c3ccc4c(c3)OCCO4)C(=O)C(=O)N2CCCOC)c2ccccc21 (configuration not stated) | -7 | -23 | 10765 | . | 1.5 | 6 | 11 |
| Cc1ccc2c(c1)N(S(=O)(=O)c1ccc(CN3C(=O)c4cccnc4C3=O)s1)CCO2 | -2 | -16 | 5720 | -13 | -0.8 | 10 | 13 |
| O=C(CSc1ncnc2ccccc12)NCCc1ccccc1 | 1 | -25 | 4371 | -1 | 7.1 | 8 | 6 |
| O=C(NCc1ccccc1)c1cccc(NS(=O)(=O)c2cccc3cccnc23)c1 | 5 | -11 | 2475 | -5 | -0.7 | 7 | 5 |
| CCN(CC)S(=O)(=O)c1ccc(C(=O)Nc2cc(C)cc(C)c2)cc1 | -2 | 8 | 2344 | -4 | -3.8 | . | . |
| Cc1cc(C)c(S(=O)(=O)c2cc(F)ccc2C)c(=O)[nH]1 | 13 | -9 | 2954 | 6 | 2.7 | 1 | -2 |
| Cc1cc(N2CCN(c3ccccn3)CC2)n2cc(-c3ccccc3)nc2n1 | -9 | -3 | 4149 | -5 | 14 | -3 | 11 |
| CC(=O)C1=C(C)NC(=O)CC1c1ccc(Br)cc1 (configuration not stated) | 4 | -28 | 2560 | 1 | 1.0 | 10 | 2 |
| CCNCc1cc(Br)c(OCC(=O)Nc2ccccc2)c(OC)c1 | -1 | -24 | 10279 | 3 | 2.4 | 14 | 15 |
| COCCCn1c(=O)/c(=C\c2ccccc2OC(F)F)s/c1=C(/C#N)C(N)=O | . | -15 | 1909 | -4 | . | . | . |
| O=C(O)c1cccc(NC(=O)c2cccc(S(=O)(=O)N3CCCCC3)c2)c1 | 6 | -16 | 8016 | 0 | 4.2 | 7 | 4 |
| O=C(Nc1nc(-c2ccccc2)cs1)c1ccc(=O)[nH]c1 | 5 | -24 | 5277 | 8 | 4.7 | -3 | 2 |
| Cc1cc(C(F)(F)F)n2nc(-c3sccc3-n3cccc3)cc2n1 | 53 | -23 | 7640 | -10 | -0.1 | 5 | -1 |
| Cc1c(Cl)cccc1NCC(=O)NN=C1CCCC1 | 7 | -9 | 4771 | -1 | 7.8 | 14 | 5 |
| COc1cccc(C(c2c(NC(=O)c3ccco3)sc(C)c2C)N2CCOCC2)c1 (configuration not stated) | 1 | -18 | 8768 | . | -2.3 | -4 | 0 |
| O=C(O)C1C2CCC(C2)C1C(=O)Nc1cccc([N+](=O)[O-])c1 (configuration not stated) | 11 | . | 3775 | -3 | -0.5 | 3 | 2 |
| COc1ccc(/C=C/C(=O)c2cccc(-n3cnnn3)c2)cc1O | 0 | -6 | 3387 | -3 | 2.0 | 1 | 9 |
| O=C(CCc1nnc2ccc(N3CCCC3)nn12)Nc1ccc(F)c(F)c1 | 7 | 5 | 5920 | -3 | -0.8 | 7 | -2 |
| Cc1cc(C)nc(SCC(=O)Nn2cnnc2)n1 | 4 | -29 | 3024 | 7 | 0.5 | . | . |
| CN1CCN(NC(=O)c2cc(Br)ccc2Cl)CC1 | 3 | -17 | 2578 | -1 | 2.0 | 0 | -5 |
| O=C(CN1C(=O)/C(=C/c2ccccc2)SC1=S)Nc1cccnc1 | . | -1 | 2473 | -5 | . | . | . |
| COc1ccc2c(c1)SC(C)CC2=O (configuration not stated) | -4 | -10 | 3396 | -1 | -12 | 24 | -20 |
| COc1ccc(CCN(C)Cc2c(O)ccc3ccccc23)cc1OC | 12 | -29 | 3326 | 7 | -2.0 | 0 | 11 |
| Cc1cccc(-n2cc(-c3ccccc3)c3c(=O)[nH]cnc32)c1 | -9 | -11 | 7000 | -10 | 8.3 | 13 | 2 |
| OCCN1CCN(CCOc2cccc(Cl)c2)CC1 | -3 | -14 | 3722 | 4 | 5.9 | 16 | 16 |
| COc1ccc(NC(=O)c2ccc3nc[nH]c3c2)c(OC)c1 | 13 | -8 | 4985 | -2 | 2.2 | 5 | 2 |
| N#C/C(=C/c1ccc(N2CCCCC2)o1)C(=O)NCCc1c[nH]c2ccccc12 | -21 | -17 | 5661 | -9 | 2.8 | -25 | -2 |
| OCCOCCN1CCN(C2=Nc3ccccc3Sc3ccccc32)CC1 | -5&-2 | -4&-12 | 4227&5425 | 2&-1 | 3.9&6.5 | 4&-8 | 0&-3 |
| OCC[C@@H]1C[C@H](O)[C@@H](O)[C@@]2(OCCc3ccccc32)O1 | . | -16 | 3662 | -9 | . | . | . |
| O=C(COC(=O)c1cccc2c1C(=O)c1ccccc1C2=O)NC1CCCCC1 | 66 | -25 | 2039 | -6 | 77 | -14 | 0 |
| COc1cc(SC)ccc1C(=O)Nc1ccc2c(c1)OCCO2 | 0 | -45 | 11535 | 0 | 6.3 | 0 | 5 |
| COc1ccc(OC)c(NC(=O)CCCSc2ccccc2)c1 | 4 | -3 | 3864 | -9 | 2.7 | -4 | 3 |
| O=C(C(=O)N1CCN(c2cccc(Cl)c2)CC1)c1cn(CC(=O)N2CCOCC2)c2ccccc12 | 10 | -12 | 5167 | 3 | 3.8 | 0 | 4 |
| COc1cc2c(cc1OC)C(C(=O)O)C(c1ccc(C)o1)N(C)C2=O (configuration not stated) | 0 | -15 | 2847 | 5 | 3.0 | . | . |
| CCCc1nc(-c2ccccc2O)n(-c2ccccc2)n1 | 9 | 2 | 3645 | 6 | 3.3 | 6 | 5 |
| COc1cccc(NC(=O)Nc2nc(SC)ns2)c1 | -19 | -88 | 3306 | -11 | -0.2 | -15 | 2 |
| C=CCCC(=O)Nc1nc(C)c(-c2csc(Nc3cc(OC)ccc3OC)n2)s1 | -1 | -29 | 3753 | 27 | -2.9 | 5 | 11 |

New compounds follow
| SMILES | ugtP null kill | PrP 5UTR inh | Autofluor counter | BJeLR lethal | RN4220 kill | Mtb hypoxia rep | Mtb hypoxia rep growth |
| --- | --- | --- | --- | --- | --- | --- | --- |
| CCC(=O)N/C(=N/c1nc(C)cc(C)n1)Nc1ccc(C)cc1 | 3 | -4 | 4222 | 12 | 3.7 | 3 | 5 |
| CCc1cccc2c(C(=O)COC(=O)c3cnc(C)cn3)c[nH]c12 | 2 | -23 | 3163 | . | 2.1 | 11 | 5 |
| Nc1ccccc1C(=O)OCCOc1ccccc1 | 1 | -48 | 2109 | . | 4.8 | . | . |
| O=C(CSc1ccccn1)Nc1cccc2ccccc12 | 7 | -12 | 4361 | 4 | 5.2 | 12 | -3 |
| CCC(=O)N1c2ccc(S(=O)(=O)CCC(=O)N3CCN(c4ccccc4)CC3)cc2CC1C (configuration not stated) | 3 | -15 | 3340 | 3 | -2.5 | . | . |
| COc1ccc(NS(=O)(=O)c2ccc(F)c(Cl)c2)cn1 | 2 | -17 | 5343 | 7 | 6.8 | 4 | -1 |
| O=C(Nc1nncs1)c1cc(-c2ccco2)nc2ccccc12 | 4 | -20 | 3949 | . | 2.9 | 21 | 13 |
| C/C(=N\NC(=O)c1ccn(C)n1)c1ccco1 | . | -50 | 3065 | 6 | . | . | . |
| Cc1noc(C)c1CSCC(=O)Nc1cc(Cl)ccc1N1CCOCC1 | 1 | -19 | 5803 | 9 | 0.2 | 3 | 8 |
| C/C(CCc1ccccc1)=N\NC(=O)CCc1ccccc1 | . | -20 | 2120 | -2 | . | . | . |
| O=C(N/N=C/c1ccoc1)c1ccccc1Br | . | -6 | 5749 | -1 | . | . | . |
| CC(=O)c1c(C)[nH]c(C(=O)COC(=O)c2cccc(S(=O)(=O)N(C)c3ccccc3)c2)c1C | -8 | -12 | 2109 | -1 | 3.2 | 5 | 14 |
| COc1ccc(NC(=S)N(CCN2CCCCC2)Cc2ccco2)cc1 | 3 | -50 | 4168 | 13 | 1.3 | -4 | 2 |
| CC(=O)NCCOc1ccc(C(=O)O)cc1 | 9 | -14 | 2817 | 2 | 1.1 | . | . |
| Cc1ccc(S(=O)(=O)CC(=O)Nc2ncc([N+](=O)[O-])s2)cc1 | 8 | -10 | 3024 | -10 | 27 | 14 | 6 |
| CC(=NNC(=O)c1ccn[nH]1)c1cn(C)nc1C | 6 | . | . | . | 2.3 | 12 | 8 |
| CCOC(=O)C1CCN(C(=O)C2CCCN(S(=O)(=O)c3ccc(OC)c(Cl)c3)C2)CC1 (configuration not stated) | 4 | -18 | 5750 | -18 | 2.7 | 4 | 0 |
| Cc1ccc2[nH]cc(CCCN3C(=O)c4ccccc4C3=O)c2c1 | 1 | -56 | 2793 | -4 | 10 | 14 | 0 |
| CCOc1nc2ccccc2cc1C=O | 8 | -48 | 4476 | 4 | 2.3 | 1 | 3 |
| c1cnc(N2CCN(Cc3ccc4c(c3)OCO4)CC2)nc1 | 7&7 | -11&-21 | 6034&5284 | 1 | 1.5&5.5 | 5&4 | 0&9 |
| c1ccc(-c2n[nH]c3ccccc23)cc1 | -22 | -18 | 10887 | 14 | 12 | 1 | 2 |
| COc1ccc(N2CCN(S(=O)(=O)CCNS(=O)(=O)c3ccccc3)CC2)cc1 | 9 | -13 | 5862 | 4 | -4.6 | -1 | 8 |
| COc1ccc(/C=N/N=C(\N)c2nonc2N)cc1OC | . | -47 | 4349 | 8 | . | . | . |
| O=C(Nc1ccccc1)Nc1cccc2ccccc12 | 10 | -28 | 4223 | 13 | 3.8 | -8 | 12 |
| S=C(NCc1ccco1)N/N=C/c1ccncc1 | . | -19 | 6025 | -4 | . | . | . |
| Cc1nn(-c2ccccc2)c(Cl)c1/C=N/NC(=O)c1ccccc1F | . | -80 | 8866 | -1 | . | . | . |
| O=C(COc1ccccc1)OC(C(=O)c1ccccc1)c1ccccc1 (configuration not stated) | 0 | -10 | 3086 | -5 | -5.4 | -6 | 2 |
| CCOc1ccc(NC(=O)Cc2ccc(S(=O)(=O)N3CCCCC3)cc2)cc1OCC | 3 | 5 | 4907 | . | 4.3 | -2 | -10 |
| Cc1ccc(N(C(=O)Nc2ccccc2)C2=NCCC2)cc1 | 6 | -9 | 6030 | 4 | 0.3 | 11 | 1 |
| Cc1ccc(NC(=O)N[C@H](C(=O)O)C(C)C)c(C)c1 | 4 | 2 | 4719 | 8 | 1.0 | -9 | -10 |
| COc1ccccc1CNC(=O)CCS(=O)(=O)c1ccc2c(c1)CC(C)N2C(=O)C1CC1 (configuration not stated) | 3 | -6 | 5706 | 8 | 4.3 | 7 | 7 |
